Cruzain inh Det: blocks cruzain activity in presence of Triton detergent; P25779; purified cruzain, Z-FR-AMC fluorescence, 0.01% Triton; Potency, µM, for inactives: max response, negative = inhibition, hits mostly inhibitors; 0.43% of 200,000 active; AID 1478; active = well fitted curve in the direction sought with a large enough effect; inconclusive = small, poorly fitted or top-dose-only effect, or another doubt; inactive = no such curve, though single readings can be large; an effect the other way counts as inactive or inconclusive;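 note: plate controls were neutral wells for no effect and buffer without enzyme for full effect; nearly all actives have a fitted effect of over 40% in size; top concentration of the series not given in the record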
Target sequence (P25779 123-467 limits assumed): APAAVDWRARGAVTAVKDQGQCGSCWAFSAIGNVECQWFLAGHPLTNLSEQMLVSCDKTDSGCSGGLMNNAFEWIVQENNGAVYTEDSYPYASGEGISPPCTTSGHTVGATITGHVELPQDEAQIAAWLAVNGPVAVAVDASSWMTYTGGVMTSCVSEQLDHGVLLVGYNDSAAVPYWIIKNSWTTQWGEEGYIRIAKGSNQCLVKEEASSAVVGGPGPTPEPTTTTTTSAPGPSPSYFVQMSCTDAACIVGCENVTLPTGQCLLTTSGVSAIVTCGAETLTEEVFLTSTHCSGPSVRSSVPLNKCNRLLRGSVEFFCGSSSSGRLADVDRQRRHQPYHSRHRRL
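Compounds were screened in titration against cruzain (1.5 nM) with 0.01% Triton X-100 to counter colloidal aggregation. Activity was the AMC fluorescence increase over 60 s after adding 2 uM Z-FR-AMC at pH 5.5.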
Cruzain noTriton: inhibitors of Trypanosoma cruzi cruzain without detergent | P25779 | purified cruzain, Z-FR-AMC fluorescence, no detergent | Potency, µM, without a hit: max response, negative = inhibition, usual class: inhibitors | 2.3% of 200,000 active | AID 1476; active = well fitted curve in the direction sought with a large enough effect; inconclusive = small, poorly fitted or top-dose-only effect, or another doubt; inactive = no such curve, though single readings can be large; an effect the other way counts as inactive or inconclusive;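 note: plate controls were enzyme without inhibitor for no effect and buffer without enzyme for full effect; nearly all actives have a fitted effect of over 40% in size; top concentration of the series not given in the record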
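Purified cruzain at 1.5 nM, pre-incubated 15 min with compound at room temperature in 100 mM sodium acetate pH 5.5, 5 mM DTT, 0.00005% Triton X-100. Reaction started with 2 uM Z-FR-AMC; AMC fluorescence increase over 60 s gives rate.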
StopGo reporter: lowers the luciferase signal of an FMDV 2A StopGo reporter | human cells with a luciferase reporter of 2A StopGo recoding; control for the full effect not named in the record | Potency, µM (top dose mostly 57.9 µM), for inactives: at the highest dose signal change, negative = less light | 1.2% of 410,000 active | AID 1159524; active = well fitted falling curve with a large enough effect; inconclusive = small, poorly fitted or top-dose-only effect; inactive = no such curve, though single readings can be large or run the other way; tested in HEK293T cells; note: % is set by controls: 0 for no effect and ±100 for the full control effect; nearly all actives have a fitted effect of over 45% in size; luciferase light after 4 h
Marburg entry inh: Marburg virus entry inhibition. Marburg virus pseudotyped entry inhibition, cell reporter; control for the full effect not named in the record; about a third of the inactives were read at about 46 µM. Potency, µM (top dose mostly 37.8 µM), for inactives: top-dose activity change, negative = inhibition, usual class: inhibitors. 1.8% of 300,000 active. AID 540276; active = well fitted inhibition curve with a large enough effect; inconclusive = small, poorly fitted or top-dose-only effect, or effect the other way; inactive = flat fitted curve, though single readings scatter; tested in HEK293 cells; about a fifth of its hits are not listed in these tables; note: % is set by controls: 0 for no effect and ±100 for the full control effect; luciferase read-out
Lassa entry inh: blocks Lassa virus binding to or entry into cells; 1.2% of 300,000 active; Potency, µM (titrated, usually from 37.9 µM), for inactives: top-dose activity change, negative = inhibition, usual class: inhibitors; Lassa virus pseudotype entry inhibition, cell reporter; control for the full effect not named in the record; active means well fitted inhibition curve with a large enough effect; inconclusive means small, poorly fitted or top-dose-only effect, or effect the other way; inactive means flat fitted curve, though single readings scatter; tested in HEK293 cells; note: % is set by controls: 0 for no effect and ±100 for the full control effect; nearly all actives have a fitted effect of over 50% in size; luciferase read-out
SARS PLpro yeast: SARS-CoV PLP inhibition in yeast; S. cerevisiae expressing SARS-CoV PLpro, growth rescue; control for the full effect not named in the record; Potency, µM (highest dose often 32.9 µM), inactives show at the top dose activity, positive = growth rescue; 0.19% of 330,000 active; note: 0% is about no effect; nearly all actives have a fitted effect of over 55% in size; growth read by luminescence after 48 h
RE007 growth inh: less growth of the S. pombe RE007 Vpr strain; AID 651644; Potency, µM (doses to about 92.2 µM), inactives show top-dose activity change, negative = less growth; 0.21% of 360,000 active; S. pombe RE007 Vpr strain, BacTiter-Glo ATP luminescence, 24 h; control for the full effect not named in the record; active = well fitted falling curve with a large enough effect; inconclusive = small, poorly fitted or top-dose-only effect; inactive = no such curve, though single readings can be large or run the other way;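 note: % is set by controls: 0 for no effect and ±100 for the full control effect; nearly all actives have a fitted effect of over 50% in size; the assay follows cell death caused by Vpr and the record does not say whether a fall means rescue or toxicity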
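Fission yeast strain RE007, carrying one chromosomally integrated HIV-1 vpr copy, was seeded at OD 0.01 in PMG+AL medium with 23 nL pinned compound. After 24 h at 30 °C and 99% humidity, viability was read by BacTiter-Glo luminescence.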
NS1 inh: inhibitors of influenza NS1 protein function; AID 2326; S. cerevisiae slowed by influenza A NS1, growth recovery by OD600; 0.4% of 270,000 active; Potency, µM (top dose mostly 46.1 µM), for the others: at the top dose activity, positive = more growth; note: actives are rising curves; nearly all actives have a fitted effect of over 50% in size
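Read-out: OD600 growth recovery of NS1-expressing budding yeast. Cells grown overnight at 30C in -URA glucose medium, washed, resuspended and diluted 1:100 in 2% galactose assay medium, pH 6.0. Same strain lacking NS1 served as positive control.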
* marks the source's active call; other numbers are inactive results; ? = inconclusive; / = no result given; & = joins results of further samples; [ ] = remark or other dose. Unless noted, calls come from the whole dose curve; as a rule, active means well fitted rising curve with a large enough effect; inconclusive means small, poorly fitted or top-dose-only effect; inactive means no such curve, though single readings can be large or run the other way. Potency is the fitted concentration of half-maximal effect.

Molecule,Cruzain inh Det,Cruzain noTriton,StopGo reporter,Marburg entry inh,Lassa entry inh,SARS PLpro yeast,RE007 growth inh,NS1 inh
CCCN(CCC)CCCNC(=O)c1cc2c(=O)[nH]c3ccccc3c2s1,/,/,-4%,?,-22%[46.1 µM],8%,0%,3%
CNC(=S)N/N=C(\C)c1ccc(N2CCOCC2)cc1,-9.8%,-9%,37%[activator],/,/,16%,-9%,-17%
COc1cc(NC(=O)NNC(=O)c2cc3occc3n2C)cc(OC)c1OC,/,/,-18%,/,/,5%,-8%,?
CCc1ccccc1N(C)C(=O)c1ccc2c(=O)n3c(nc2c1)CCCCC3,-3.2%,-2%,-13%,-1%[46.1 µM],-12%[46.1 µM],/,/,/
CC1(C)C(c2ccco2)=[N+]([O-])C2(CCCCC2=O)N1O (stereo unspecified),-0.9%,-6%,-21%,-16%,1%,23%,4%,-1%
Cn1c(=N)n(CC(=O)c2cccs2)c2ccccc21,-1.0%,1%,/,?,22%,3%,9%,7%
COc1cccc(-c2noc(CCC(=O)N3CCN(c4cc(C)ccc4C)CC3)n2)c1,/,/,?,0%,/,4%,6%,/
O=C(O)/C=C/C(=O)Nc1ccc(S(=O)(=O)Nc2nccs2)cc1,/,/,0%,/,/,7%,14%,1%
Cc1ccc2c(c1)c(=O)c1ccccc1n2CCCC(=O)Nc1c(F)cccc1F,-1.4%,3%,-12%,/,0%[46.1 µM],/,/,/
CC(Sc1nc(C2CC2)n(-c2ccccc2)n1)C(=O)c1c(N)n(C)c(=O)n(C)c1=O (stereo unspecified),/,/,-12%,13%,2%,-5%,33%,0%
COc1ccc(NC2=NC3(CCCCC3)N=C(N)N2)cc1,1.7%,5%,-27%,23%,3%,1%,1%,?
CCOC(=O)c1sc(C)c2c1NC(C)(c1cccc3ccccc13)NC2=O (stereo unspecified),-16%,-13%,?,?,-14%,3%,29%,13%
CCOc1ccc(Cl)cc1S(=O)(=O)NCc1cccnc1,3.6%,8%,84%[activator],1%,7%,8%,-12%,6%
Fc1ccccc1CN1CCCN(C(=S)Nc2cccc(Cl)c2)C1,/,/,-2%,?,19%[46.1 µM],1%,-2%,/
O=C(c1ccc(Oc2ccccc2)cc1)C1CCCN(C(=O)c2cnccn2)C1 (stereo unspecified),/,/,-25%,-12%[46.1 µM],17%,-5%,-1%,-65%
O=C(CSc1nc2ccccc2c(=O)n1CCC(=O)N1CCN(c2ccccc2)CC1)NCC1CCCO1 (stereo unspecified),/,/,-13%,-1%[46.1 µM],7%,1%,8%,/
COCCN=c1scc(-c2cc(OC)ccc2OC)n1/N=C/c1c[nH]c2ccccc12,-4.1%,15%,?,?,?,-20%,-5%,?
CCN(CC(=O)Nc1ccc2c(c1)OCCO2)C(=O)CCc1ccc(OC)cc1,/,/,-8%,-11%,-21%,-2%,-8%,/
Cc1ccn2c(c1)nc(=O)c1cc(S(=O)(=O)N3CCC(C)CC3)ccc12,/,/,11µM*,26%[46.1 µM],2%[46.1 µM],-10%,9%,-3%
Cn1nc(C(=O)NNc2c(F)c(F)cc(F)c2F)c2ccccc2c1=O,/,/,?,-17%[46.1 µM],13%,0%,60%,/
Cc1cc(C)c[n+](-c2nc3ccccc3nc2C(=C=[N-])C#N)c1,-6.0%,0%,-6%&-3%,-4%,-6%,0%&7%,-8%&6%,0%
CCN(CC)CCC(O)(c1ccccc1)C1CCCCC1 (stereo unspecified),/,/,-17%,/,/,1%,3%,8%
CCc1ccc(N(CC)C(=O)c2cn(C)c(=O)c3ccccc23)cc1,/,/,5%,-25%,?,0%,-5%,5%
Cc1cccc(NC(=O)c2oc3c(c2C)C(=O)CC(C)(C)C3)n1,4.8%,0%,0%,?,-54%,-8%,8%,-16%
COc1ccccc1NC(=O)CN(c1ccccc1C)S(C)(=O)=O,/,/,-11%,8%,16%,0%,-8%,14%
CCCCN(C(=O)c1ccccc1OCc1ccc(F)cc1)c1c(N)n(CC(C)C)c(=O)[nH]c1=O,/,/,-20%,-21%,-3%,5%,-4%,6%
COc1ccc(OCCOC(=O)Nc2ccccc2)cc1,-2.1%,-1%,-9%,-7%[46.1 µM],0%,?,-9%,-57%
O=C1NC(=O)/C(=C/c2ccc(N3CCOCC3)o2)N1,/,/,-25%,-6%,-9%,0%,0%,2%
Cc1ccc2c(c1)C(=O)c1c(C(=O)O)cccc1-2,/,/,-28%,21%[46.1 µM],-12%,0%,3%,-35%
Cc1cc(NC(=O)c2ccc3c(c2)C(=O)N(CC(C)C)C3=O)no1,/,/,38%[activator],/,/,-1%,-6%,-5%
COCCCn1c(C(=O)NCCN2CCOCC2)cc2c(=O)n3cccc(C)c3nc21,/,/,-21%,-2%,3%,2%,-3%,-10%
CC1Cc2cc(S(=O)(=O)CCC(=O)NCc3ccccc3Cl)ccc2N1C(=O)C1CC1 (stereo unspecified),-5.2%,0%,-15%,/,-16%[46.1 µM],/,/,/
Cc1ccc(-n2c(Cc3cccn3C)nnc2SCC(=O)NCc2ccco2)cc1,0.3%,15%,20%,7%,1%,0%,-2%,?
Cc1ccc(-n2c(C)cn(C(=O)c3ccccc3)c2=S)cc1,-8.7%,-15%,7%,?,18%,-14%,0%,-20%
Nc1ncnc2nc(SCc3ccc(Cl)cc3Cl)[nH]c12,3.5%,0%,1%,-9%,-23%,-28%,16%,2%
Cc1ccc2oc(-c3ccc(NC(=O)CCC(=O)O)cc3)nc2c1,-15%,8%,47%[activator],19%[46.1 µM],?,/,/,/
COc1ccc(C(=O)NC2(C(F)(F)F)C(=O)N(Cc3ccco3)C3=C2C(=O)CC(C)(C)C3)cc1OC (stereo unspecified),0.4%,?,15%,-1%,8%,-1%,-4%,11%
Cc1cc(C)n(CC(=O)N/N=C/c2ccc(C)o2)n1,-2.7%,-12%,-9%,-2%,1%,3%,-10%[3.69 µM],-4%
CCOC(=O)c1ccc(N=CC2=C(O)CC(C)(C)CC2=O)cc1,1.2%,-6%,-1%,2%,-5%,-2%,-3%,1%
CC(C)CC(NS(=O)(=O)c1ccc2c(c1)oc(=O)n2C)C(=O)N1CC=C(c2ccccc2)CC1 (stereo unspecified),-11%,10%,-12%,4%,/,?,7%,-65%
CSCCC(NC(=O)c1ccccc1Cl)C(=O)NNC(=O)c1ccncc1 (stereo unspecified),/,/,-5%,-3%,21%,-3%,-3%,/
COc1ccc(Br)cc1CN(C)CC(=O)Nc1c(Cl)ccc(C)c1Cl,-4.5%,-3%,?,0%,?,11%,?,-1%
Cc1ccc(CCNC(=O)CC2Oc3ccc(C)cc3NC2=O)cc1 (stereo unspecified),0.2%,?,-11%,2%,-7%,-13%,-4%,-13%
COC(=O)C1(C(=O)OC)Sc2ccccc2C1=O,0.7%,-2%,/,11%,0%,7%,-8%,7%
COc1ccc(-n2c(=S)[nH]c3cc(C(=O)NCCCN4CCCC4=O)ccc3c2=O)cc1,-11%,-14%,-5%,2%&-9%,-1%,2%,13%,1%
COc1ccc(C(=O)N2CCN(c3ccc(C)cc3)CC2)cc1OC,1.8%,1%,?,/,/,?,-13%,-11%
Cc1cccc(NC(=O)c2sc3nc(N)c(C#N)cc3c2N)c1,-2.9%,-10%,-1%,?,?,24%,-6%,12%

Reformatted with values under each structure: 9 of the compounds above.
The line under a structure holds: Cruzain inh Det, Cruzain noTriton, StopGo reporter, Marburg entry inh, Lassa entry inh, SARS PLpro yeast, RE007 growth inh, NS1 inh
> CCOC(=O)c1ccc(N=CC2=C(O)CC(C)(C)CC2=O)cc1
 : 1.2%, -6%, -1%, 2%, -5%, -2%, -3%, 1%
> CC(C)CC(NS(=O)(=O)c1ccc2c(c1)oc(=O)n2C)C(=O)N1CC=C(c2ccccc2)CC1 (stereo unspecified)
 : -11%, 10%, -12%, 4%, /, ?, 7%, -65%
> CSCCC(NC(=O)c1ccccc1Cl)C(=O)NNC(=O)c1ccncc1 (stereo unspecified)
 : /, /, -5%, -3%, 21%, -3%, -3%, /
> COc1ccc(Br)cc1CN(C)CC(=O)Nc1c(Cl)ccc(C)c1Cl
 : -4.5%, -3%, ?, 0%, ?, 11%, ?, -1%
> Cc1ccc(CCNC(=O)CC2Oc3ccc(C)cc3NC2=O)cc1 (stereo unspecified)
 : 0.2%, ?, -11%, 2%, -7%, -13%, -4%, -13%
> COC(=O)C1(C(=O)OC)Sc2ccccc2C1=O
 : 0.7%, -2%, /, 11%, 0%, 7%, -8%, 7%
> COc1ccc(-n2c(=S)[nH]c3cc(C(=O)NCCCN4CCCC4=O)ccc3c2=O)cc1
 : -11%, -14%, -5%, 2%&-9%, -1%, 2%, 13%, 1%
> COc1ccc(C(=O)N2CCN(c3ccc(C)cc3)CC2)cc1OC
 : 1.8%, 1%, ?, /, /, ?, -13%, -11%
> Cc1cccc(NC(=O)c2sc3nc(N)c(C#N)cc3c2N)c1
 : -2.9%, -10%, -1%, ?, ?, 24%, -6%, 12%

Screening results as filed in PubChem.
